Screening results (PubChem BioAssay)
UUG fidelity – modulators of yeast start codon fidelity, primary screen, whole organism, S. cerevisiae, single point, plate reader | S. cerevisiae UUG-firefly luciferase reporter, luminescence/redox ratio | activity score, % at 18.7 µM | actives 0.13% (n = 350,000) | AID 602363, 2012;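 active = replicate mean at a twofold rise or more, about +100% in these data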;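 also: firefly luciferase made from a UUG start codon reports start codon fidelity; reporter light over untreated wells divided by growth signal over untreated wells; some hits fall short of that in this replicate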
HIV Env fusion – inhibitors of HIV-1 Env-driven cell-cell fusion, primary screen, HeLa-JRFL effector, CEM21 target cells, luciferase | actives 1.1% (n = 360,000) | inhibition, % at 12.3 µM | AID 651610, 2012;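 active = mean replicate inhibition score of at least 50 and every replicate individually at or above 50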;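 also: 0% = plate neutral controls and 100% = maraviroc near 300 nM; one replicate is shown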
* hit, by the source's call; [ ] = another dose, or the depositor's remark.

Values run as follows: UUG fidelity	HIV Env fusion
- CC(C)CC#Cc1cnc2c(c1)C(=O)N([C@H](C)CO)C[C@@H](C)[C@H](CN(C)C(=O)CC1CC1)O2
 : 1.8	5.8[16.7 µM]
- CCCC#Cc1ccc2c(c1)O[C@@H](CN(C)C(=O)NCCC)[C@H](C)CN([C@H](C)CO)S2(=O)=O
 : 0.4	-6.5[16.7 µM]
- O=C(N[C@@H]1C=C[C@H](CC(=O)N2CCOCC2)O[C@H]1CO)c1cccc(F)c1
 : -15.4	-12.8[16.7 µM]
- Cc1noc(C)c1NC(=O)NCC[C@H]1CC[C@H](NC(=O)c2ccccc2)[C@H](CO)O1
 : 2.1	3.4[16.7 µM]
- C[C@@H]1CN([C@H](C)CO)C(=O)Cc2cc(N(C)C)ccc2O[C@@H]1CN(C)C(=O)NC1CCCCC1
 : 10.1	-8.7[16.7 µM]
- CCC(=O)N(C)C[C@H]1Oc2ncc(C#CC3(O)CCCC3)cc2C(=O)N([C@H](C)CO)C[C@H]1C
 : -6.6	17.6[16.7 µM]
- O=C(C[C@H]1CC[C@@H](NC(=O)Cc2cccnc2)[C@H](CO)O1)NCc1ccc2c(c1)OCO2
 : -11.0	19.6[16.7 µM]
- Cc1noc(C)c1NC(=O)N(C)C[C@H]1Oc2ncc(C#CCN(C)C)cc2C(=O)N([C@@H](C)CO)C[C@H]1C
 : -6.6	0.1[16.7 µM]
- C[C@@H]1CCCCO[C@@H](CN(C)S(=O)(=O)c2ccccc2)[C@H](C)CN([C@@H](C)CO)C(=O)c2cc(NS(C)(=O)=O)ccc2O1
 : -11.6	-2.3[16.7 µM]
- C[C@H]1CN([C@@H](C)CO)C(=O)c2cc(NS(=O)(=O)c3ccccc3)ccc2O[C@@H]1CN(C)C(=O)Nc1cccc2ccccc12
 : 11.1	2.6[16.7 µM]
- C=CCOC(=O)[C@@H]1[C@H]2C(=O)O[C@H](c3ccccc3)[C@H](c3ccccc3)N2[C@H](c2ccc(OCCOC(=O)[C@@H]3C[C@@H]4C(=O)N[C@@H](Cc5ccccc5)C(=O)N4[C@@H]3c3ccc(O)cc3)cc2)[C@@]12C(=O)Nc1ccccc12
 : -7.2	-31.9[16.7 µM]
- CC(=O)N(C)C[C@@H]1Oc2ncc(C#Cc3ccccc3F)cc2C(=O)N([C@@H](C)CO)C[C@H]1C
 : -2.0	10.0[16.7 µM]
- CN(C)CC(=O)N[C@@H]1C=C[C@H](CC(=O)NCc2ccc(Cl)cc2)O[C@@H]1CO
 : -7.7	-7.1[16.7 µM]
- CS(=O)(=O)Nc1ccc2c(c1)[C@@H]1C[C@H](CC(=O)NCCN3CCCCC3)O[C@H](CO)[C@@H]1O2
 : -15.2	-12.9[16.7 µM]
- C[C@H]1CCCCO[C@@H](CN(C)Cc2ccc(C(=O)O)cc2)[C@@H](C)CN([C@@H](C)CO)C(=O)c2cc(NS(=O)(=O)c3ccccc3)ccc2O1
 : 9.0	-5.5[16.7 µM]
- CC(C)C#Cc1cnc2c(c1)C(=O)N([C@H](C)CO)C[C@H](C)[C@H](CN(C)C(=O)Nc1ccccc1)O2
 : 19.4	-20.2[16.7 µM]
- COc1ccc(S(=O)(=O)N(C)C[C@H]2OCCCC[C@@H](C)Oc3ccc(NS(=O)(=O)c4cccs4)cc3C(=O)N([C@@H](C)CO)C[C@H]2C)cc1
 : -9.0	-35.2[16.7 µM]
- C[C@@H]1CN([C@@H](C)CO)C(=O)c2cc(NS(=O)(=O)c3ccc(Cl)cc3)ccc2O[C@@H](C)CCCCO[C@H]1CN(C)C
 : -2.5	-12.2[16.7 µM]
- N#C[C@@H]1[C@H](c2ccc(-c3ccc(F)cc3)cc2)[C@H](CO)N1c1nc(-c2ccccc2)cs1
 : -11.1	7.5[16.7 µM]
- CCCNC(=O)C[C@H]1CC[C@H]2[C@@H](COc3ccc(NS(=O)(=O)CC)cc3C(=O)N2C)O1
 : -8.8	4.4[16.7 µM]
- C[C@@H]1CCCCO[C@H](CN(C)Cc2ccc(C(F)(F)F)cc2)[C@H](C)CN([C@@H](C)CO)C(=O)c2cc(NC(=O)CCCN(C)C)ccc2O1
 : 2.0	-9.2[16.7 µM]
- COc1ccc(NC(=O)N(C)C[C@H]2OCCCC[C@H](C)Oc3ccc(NC(=O)Nc4ccc(F)cc4)cc3C(=O)N([C@@H](C)CO)C[C@@H]2C)cc1
 : -2.8	-4.1[16.7 µM]
- C[C@H]1CN([C@@H](C)CO)C(=O)c2cc(C3=CCCC3)cnc2O[C@H]1CN(C)C(=O)Nc1ccccc1
 : 8.6	-5.1[16.7 µM]
- CCCC#Cc1cnc2c(c1)C(=O)N([C@@H](C)CO)C[C@H](C)[C@@H](CN(C)C(=O)Nc1cc(F)ccc1F)O2
 : 15.3	-3.1[16.7 µM]
- C[C@@H]1CCCCO[C@@H](CN(C)S(=O)(=O)c2ccc(Cl)cc2)[C@@H](C)CN([C@H](C)CO)C(=O)c2cc(NC(=O)Nc3ccc(C(F)(F)F)cc3)ccc2O1
 : -0.6	9.8[16.7 µM]
- C[C@@H]1CN([C@H](C)CO)C(=O)c2cccc(NS(=O)(=O)c3ccc(Cl)cc3)c2O[C@H]1CN(C)S(=O)(=O)c1ccc(F)cc1
 : -7.4	-1.4[16.7 µM]
- C[C@@H]1CN([C@H](C)CO)C(=O)Cc2cc(NC(=O)C3CCCCC3)ccc2O[C@H]1CN(C)Cc1ccc(-c2ccccc2)cc1
 : 4.1	21.2[16.7 µM]
- CCCNC(=O)N(C)C[C@@H]1Oc2cc(C#CC3CC3)ccc2S(=O)(=O)N([C@@H](C)CO)C[C@H]1C
 : -4.8	1.3[16.7 µM]
- C[C@@H]1CN([C@@H](C)CO)C(=O)Cc2cc(NC(=O)C3CCCCC3)ccc2O[C@H]1CN(C)C(=O)Nc1cccc2ccccc12
 : 18.1	9.4[16.7 µM]
- O=C(C[C@H]1C[C@H]2c3cc(NC(=O)Nc4ccc(C(F)(F)F)cc4)ccc3O[C@H]2[C@H](CO)O1)NCc1ccccn1
 : -19.9	-2.2[16.7 µM]

Gathered by group: those above containing a Cl atom
Values run as follows: UUG fidelity	HIV Env fusion
- CN(C)CC(=O)N[C@@H]1C=C[C@H](CC(=O)NCc2ccc(Cl)cc2)O[C@@H]1CO
 : -7.7	-7.1[16.7 µM]
- C[C@@H]1CN([C@@H](C)CO)C(=O)c2cc(NS(=O)(=O)c3ccc(Cl)cc3)ccc2O[C@@H](C)CCCCO[C@H]1CN(C)C
 : -2.5	-12.2[16.7 µM]
- C[C@@H]1CCCCO[C@@H](CN(C)S(=O)(=O)c2ccc(Cl)cc2)[C@@H](C)CN([C@H](C)CO)C(=O)c2cc(NC(=O)Nc3ccc(C(F)(F)F)cc3)ccc2O1
 : -0.6	9.8[16.7 µM]
- C[C@@H]1CN([C@H](C)CO)C(=O)c2cccc(NS(=O)(=O)c3ccc(Cl)cc3)c2O[C@H]1CN(C)S(=O)(=O)c1ccc(F)cc1
 : -7.4	-1.4[16.7 µM]

Next compounds:
Values run as follows: UUG fidelity	HIV Env fusion
- N#C[C@@H]1[C@@H](c2ccc(-c3ccccc3F)cc2)[C@H](CO)N1C(=O)C1CC1
 : -20.1	0.5[16.7 µM]
- CCC(=O)N(C)C[C@H]1Oc2cc(C#CCC3CCCC3)ccc2S(=O)(=O)N([C@H](C)CO)C[C@H]1C
 : 0.5	-2.4[16.7 µM]
- CCCNC(=O)C[C@@H]1CC[C@@H]2[C@@H](COc3ccc(NC(=O)C4CCCC4)cc3C(=O)N2C)O1
 : 8.9	-3.6[16.7 µM]
- COc1ccc(S(=O)(=O)Nc2ccc3c(c2)CC(=O)N([C@@H](C)CO)C[C@H](C)[C@@H](CN(C)C(=O)Nc2ccc(C(F)(F)F)cc2)O3)cc1
 : 1.7	13.9[16.7 µM]
- COc1ccc(S(=O)(=O)N(C)C[C@@H]2OCCCC[C@@H](C)Oc3ccc(NS(=O)(=O)c4ccc(F)cc4)cc3C(=O)N([C@@H](C)CO)C[C@H]2C)cc1
 : 16.7	11.2[16.7 µM]
- CC(C)NC(=O)Nc1ccc2c(c1)C(=O)N([C@H](C)CO)C[C@@H](C)[C@H](CN(C)Cc1ccc(C(=O)O)cc1)OCCCC[C@H](C)O2
 : -8.2	12.1[16.7 µM]
- Cc1ccc(S(=O)(=O)Nc2ccc3c(c2)CC(=O)N([C@@H](C)CO)C[C@@H](C)[C@H](CN(C)S(=O)(=O)c2c(C)noc2C)O3)cc1
 : 26.7	-5.3[16.7 µM]
- COCC(=O)N(C)C[C@@H]1Oc2ncc(-c3ccc(F)cc3)cc2C(=O)N([C@@H](C)CO)C[C@H]1C
 : -2.6	17.0[16.7 µM]
- C/C=C/c1ccc2c(c1)O[C@@H](CN(C)C(=O)Nc1ccc(OC)cc1)[C@H](C)CN([C@H](C)CO)S2(=O)=O
 : -4.6	-11.6[16.7 µM]
- C[C@@H]1CCCCO[C@@H](CN(C)S(=O)(=O)c2cn(C)cn2)[C@@H](C)CN([C@H](C)CO)C(=O)c2cc(NS(=O)(=O)c3cccs3)ccc2O1
 : 8.6	22.1[16.7 µM]
- C[C@@H]1CCCCO[C@@H](CN(C)Cc2ccc(C(F)(F)F)cc2)[C@@H](C)CN([C@@H](C)CO)C(=O)c2cc(N(C)C)ccc2O1
 : -2.8	-25.2[16.7 µM]
- CCC(=O)N[C@@H]1C=C[C@@H](CC(=O)OC)O[C@H]1CO
 : -0.3	2.4[16.7 µM]
- C[C@H](CO)N1C[C@H](C)[C@H](CN(C)C(=O)CCC(F)(F)F)OCCCC[C@H](C)Oc2ccc(NC(=O)Nc3ccccc3)cc2C1=O
 : 17.1	-8.1[16.7 µM]
- C[C@@H]1CN([C@H](C)CO)C(=O)c2cc(NC(=O)Nc3ccc(F)cc3)ccc2O[C@H]1CN(C)Cc1ccc(Oc2ccccc2)cc1
 : 4.7	13.2[16.7 µM]
- Cc1noc(C)c1NC(=O)Nc1ccc2c(c1)C(=O)N([C@H](C)CO)C[C@@H](C)[C@@H](CN(C)S(=O)(=O)c1cccs1)OCCCC[C@H](C)O2
 : 7.3	-4.3[16.7 µM]
- C[C@H]1CN([C@@H](C)CO)C(=O)c2cccc(NC(=O)C3CCOCC3)c2O[C@@H]1CN(C)C(=O)Nc1ccc(F)cc1
 : -7.9	3.7[16.7 µM]
- COCCNC(=O)C[C@@H]1C=C[C@H](NC(=O)NC2CCCC2)[C@@H](CO)O1
 : -19.3	-76.9[16.7 µM]
- Cc1noc(C)c1S(=O)(=O)Nc1ccc2c(c1)C(=O)N([C@H](C)CO)C[C@H](C)[C@H](CN(C)CC1CC1)OCCCC[C@H](C)O2
 : -5.7	-20.6[16.7 µM]
- C[C@@H]1CN([C@@H](C)CO)S(=O)(=O)c2ccc(C#C[C@@H](C)O)cc2O[C@@H]1CN(C)CC1CCOCC1
 : -6.7	-10.2[16.7 µM]
- Cc1noc(C)c1NC(=O)Nc1ccc2c(c1)C(=O)N([C@@H](C)CO)C[C@@H](C)[C@@H](CN(C)C(=O)CCCN(C)C)OCCCC[C@H](C)O2
 : 18.2	18.6[16.7 µM]
- COc1cccc(NC(=O)N[C@@H]2CC[C@@H](CC(=O)N3CCN(C)CC3)O[C@H]2CO)c1
 : 29.6	-9.0[16.7 µM]
- C[C@H](CO)N1C[C@H](C)[C@H](CN(C)C(=O)Nc2ccccc2)Oc2ncc(C#Cc3ccccc3)cc2C1=O
 : 6.4	-31.1[16.7 µM]
- COc1cccc(NC(=O)N[C@H]2C=C[C@H](CC(=O)NCc3ccccn3)O[C@@H]2CO)c1
 : -12.5	-20.0[16.7 µM]
- O=C(N[C@@H]1CC[C@H](CCNC(=O)C2CCCCC2)O[C@@H]1CO)c1ccccn1
 : 20.7	1.2[16.7 µM]
- C[C@@H]1CCCCO[C@H](CN(C)C(=O)Cc2ccccc2)[C@H](C)CN([C@H](C)CO)C(=O)c2cc(NC(=O)Nc3ccc(F)cc3)ccc2O1
 : 16.8	-4.9[16.7 µM]
- C/C=C/c1ccc2c(c1)O[C@H](CN(C)Cc1ccncc1)[C@@H](C)CN([C@H](C)CO)S2(=O)=O
 : -11.2	14.0[16.7 µM]
- C[C@H](CO)N1C[C@H](C)[C@@H](CN(C)C(=O)c2ccccc2)OCCCC[C@H](C)Oc2ccc(NC(=O)Cc3ccccc3)cc2C1=O
 : 8.2	-34.9[16.7 µM]
- COc1ccc(NC(=O)N(C)C[C@H]2Oc3cc(-c4ccc(C)cc4)ccc3S(=O)(=O)N([C@@H](C)CO)C[C@@H]2C)cc1
 : -5.8	2.4[16.7 µM]
- CO[C@H]1CN(C)C(=O)c2ccc(NS(C)(=O)=O)cc2OC[C@@H](C)N(Cc2cncnc2)C[C@H]1C
 : -7.3	-0.8[16.7 µM]
- C[C@@H]1CCCCO[C@@H](CN(C)Cc2ccccc2)[C@@H](C)CN([C@@H](C)CO)C(=O)c2cc(NC(=O)Cc3ccccc3)ccc2O1
 : 17.5	-14.9[16.7 µM]

Reformatted: entries from further up
Structure: CCC(=O)N(C)C[C@H]1Oc2cc(C#CCC3CCCC3)ccc2S(=O)(=O)N([C@H](C)CO)C[C@H]1C
  UUG fidelity: 0.5
  HIV Env fusion: -2.4[16.7 µM]

Structure: CCCNC(=O)C[C@@H]1CC[C@@H]2[C@@H](COc3ccc(NC(=O)C4CCCC4)cc3C(=O)N2C)O1
  UUG fidelity: 8.9
  HIV Env fusion: -3.6[16.7 µM]

(more compounds)
Values run as follows: UUG fidelity	HIV Env fusion
- CO[C@H]1CN(C)C(=O)c2cc(NC(C)=O)ccc2OC[C@H](C)N(C(=O)C2CC2)C[C@@H]1C
 : 1.7	-26.7[16.7 µM]
- COc1ccc(S(=O)(=O)Nc2ccc3c(c2)CC(=O)N([C@@H](C)CO)C[C@H](C)[C@@H](CN(C)S(=O)(=O)c2ccccc2)O3)cc1
 : -6.2	-7.9[16.7 µM]
- CCC(=O)N(C)C[C@@H]1Oc2ncc(C#Cc3ccccc3)cc2C(=O)N([C@@H](C)CO)C[C@H]1C
 : 4.9	14.1[16.7 µM]
- COc1ccc(NC(=O)Nc2ccc3c(c2)[C@H]2C[C@H](CC(=O)NCc4ccncc4)O[C@H](CO)[C@H]2O3)cc1
 : -5.8	5.3[16.7 µM]

Some of the compounds tested; rates above refer to the full screens.
